Source: PubChem BioAssay (National Center for Advancing Translational Sciences (NCATS))
KAT2A inh = qHTS Assay for Inhibitors of GCN5L2 | Histone acetyltransferase KAT2A (Homo sapiens), Q92830 | GCN5L2 HAT assay, ThioGlo1 CoA-SH fluorescence | Potency, µM (top dose mostly 58.9 µM), without a hit: top-dose activity change, negative = inhibition, most hits filed as inhibitors | 390,000 compounds, 0.21% hits; active = well fitted inhibition curve with a large enough effect; inconclusive = small, poorly fitted or top-dose-only effect, or another doubt; inactive = no such curve, though single readings can be large or run the other way
Target sequence (Q92830 whole entry, looked up): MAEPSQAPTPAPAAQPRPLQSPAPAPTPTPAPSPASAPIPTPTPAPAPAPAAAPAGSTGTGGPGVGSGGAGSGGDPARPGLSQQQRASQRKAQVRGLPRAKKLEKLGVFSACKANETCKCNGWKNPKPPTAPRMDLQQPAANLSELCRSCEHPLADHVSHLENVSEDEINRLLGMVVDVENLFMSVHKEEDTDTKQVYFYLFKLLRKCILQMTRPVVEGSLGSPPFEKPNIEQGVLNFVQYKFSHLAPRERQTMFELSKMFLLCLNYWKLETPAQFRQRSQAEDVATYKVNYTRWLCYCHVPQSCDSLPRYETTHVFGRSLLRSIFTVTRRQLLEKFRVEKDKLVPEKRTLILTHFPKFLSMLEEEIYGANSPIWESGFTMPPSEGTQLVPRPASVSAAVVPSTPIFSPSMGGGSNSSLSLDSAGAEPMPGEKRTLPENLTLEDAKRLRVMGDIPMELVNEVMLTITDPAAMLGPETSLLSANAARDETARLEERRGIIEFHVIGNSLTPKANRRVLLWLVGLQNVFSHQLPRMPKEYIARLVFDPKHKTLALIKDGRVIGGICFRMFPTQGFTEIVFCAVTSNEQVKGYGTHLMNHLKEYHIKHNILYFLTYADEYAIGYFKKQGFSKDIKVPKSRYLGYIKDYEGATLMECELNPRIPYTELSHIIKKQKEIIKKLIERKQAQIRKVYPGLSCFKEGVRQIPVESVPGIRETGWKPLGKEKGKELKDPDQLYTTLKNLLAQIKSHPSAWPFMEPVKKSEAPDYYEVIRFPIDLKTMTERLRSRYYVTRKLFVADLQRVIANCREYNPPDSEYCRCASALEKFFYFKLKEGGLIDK
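qHTS, 1536-well. 20nM enzyme, pH 7.5 HEPES/EDTA/Tween-20 buffer; 15 min compound preinc., RT. Start: 75uM H3(1-25), 70uM AcCoA, 50uM ThioGlo1. Read Ex340/Em540 at t=0 (autofluorescence flag) and t=20 min.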
* marks the source's active call; other numbers are inactive results; ? = inconclusive; & = joins results of further samples; [ ] = dose if it differs, or a comment. % is set by controls: 0 for no effect and ±100 for the full control effect; potency is the fitted concentration of half-maximal effect. A portion of the library, and most or all hits are left out here.

KAT2A inh | compound
? | CCN1CCN(CCCNC(=O)c2csc3c2CCCCC3)CC1
-6% | Fc1cc(F)c2nc(Nc3nc4c(F)cccc4s3)sc2c1
-23% | CCCc1cc(=O)n2nc(N3CCC(C(=O)NCc4ccc(C)o4)CC3)sc2n1
-3% | c1ccc2c(c1)CCc1c(-c3ccncc3)n[nH]c1-2
0% | COc1cccc(CC(=O)OC(C)C(=O)Nc2ccc(Cl)cn2)c1 (centres undefined)
2% | COc1ccccc1N1CCN(C2CCCN(C(=O)CCn3cncn3)C2)CC1 (centres undefined)
-4%[0.501 µM] | c1n[nH]c(SCCCCSc2ncn[nH]2)n1
-4% | CC1CC(C)CN(C(=O)c2cccc(S(=O)(=O)NCc3ccccc3)c2)C1 (centres undefined)
-3% | Clc1ccc(Cl)c(OCCN2CCOCC2)c1
0%&5% | COc1nccnc1NS(=O)(=O)c1ccc(N)cc1
-8% | CS(=O)(=O)c1ccc(-c2sc3ccccc3c2C(=O)N2CCN(c3ccc(F)cc3)CC2)cc1
0% | O=C(c1cc(COc2c(F)cccc2F)on1)N1CCc2ccccc2C1
-16% | O=C(/C=C/c1ccco1)Oc1cc(Br)cc(/C=N/NC(=O)c2ccccc2O)c1
-1% | COc1ccc(NC(=O)CSCc2cc(=O)c3cc(C)ccc3[nH]2)cc1
-14% | COc1ccc([C@H]2CC(=O)C=C(c3cccc4c3sc3ccccc34)C2)cc1OC
-3% | CCC(=O)Oc1ccc(C(=O)Nc2cccc(NC(=O)c3ccco3)c2)cc1
0% | CCOc1ccc(NC(=O)Nc2c[nH]c(=O)[nH]c2=O)cc1
-3% | CCOc1ccc(N=C2C(=O)N(CN3CCOCC3)c3ccccc32)cc1
-8% | COc1cccc(-c2cc(C(=O)N3CCc4ccccc4C3)no2)c1
0% | Cc1ccc(S(=O)(=O)N2CC(C)C(=O)CC2C)cc1 (centres undefined)
-5% | O=C(c1ccc(F)cc1)N1CCN(c2cc(=O)[nH]nc2-c2ccccc2)CC1
-8% | CC(C)N(Cc1ccccc1)C(=O)CN1C(=O)NC(Cc2ccccc2)(c2ccccc2)C1=O (centres undefined)
3% | CC(=O)Oc1ccc(C(=O)NCc2ccc3c(c2)OCO3)cc1
-4% | O=C(NCc1ccccn1)Nc1ccc(Cl)cc1Cl
0% | Cc1cccc(Cn2c(N3CCN(c4ccccc4)CC3)nc3c2c(=O)n(C)c(=O)n3C)c1
2% | Cc1ccc(C(=O)Nc2cccnc2)cc1NC(=O)c1ccco1
-1% | CC(CCc1ccccc1)NC(=O)CSc1nnnn1C (centres undefined)
-4% | CN(C)S(=O)(=O)c1cccc(NC(=O)c2cccc(S(=O)(=O)N3CCc4ccccc43)c2)c1
0% | CCCOc1cccc(C(=O)Nc2ccccc2C(=O)N2CCN(C)CC2)c1
-11% | COc1ccc2[nH]c3c(c2c1)CCN1C(=O)C(CC(=O)NCCC2=CCCCC2)C[C@H](C(=O)N(C(C)C)C(C)C)[C@@]31C (some centres undefined)
-2% | O=C(C(Cc1ccccc1)n1cccc1)N1CCN(c2ncccn2)CC1 (centres undefined)
8% | O=C(NC(Cc1c[nH]c2ccccc12)C(=O)N/N=C/c1ccc(Br)cc1)c1cccs1 (centres undefined)
-31% | Cc1cccc(NC(=O)c2ccccc2NC(=O)c2ccco2)c1
1% | O=C(NCCNC(=O)c1ccc(Cl)cc1Cl)c1ccco1
-1% | Cn1c(CCC(=O)OCC(=O)NCc2ccccc2Cl)nc(=O)c2ccccc21
-7% | Cc1cccc(CC(C)NC(=O)CCc2nnc(CCCCc3ccccc3)o2)n1 (centres undefined)
-14% | Cc1c(C(=O)N(C)c2ccccc2)sc2nc(-c3ccc(F)cc3)cn12
-17% | O=C(O)C1C2C=CC3(O2)C1C(=O)N1c2ccccc2COC13 (centres undefined)
-9% | O=C(NCC(c1ccco1)N1CCCCC1)c1cccc(S(=O)(=O)Nc2ccc(F)cc2)c1 (centres undefined)
-11% | CC(=O)Nc1ccc(S(=O)(=O)N2CCC(=O)Nc3ccccc32)cc1

An excerpt from above in order of length of the SMILES, falling.
KAT2A inh | compound
-8% | CC(C)N(Cc1ccccc1)C(=O)CN1C(=O)NC(Cc2ccccc2)(c2ccccc2)C1=O (centres undefined)
-9% | O=C(NCC(c1ccco1)N1CCCCC1)c1cccc(S(=O)(=O)Nc2ccc(F)cc2)c1 (centres undefined)
-7% | Cc1cccc(CC(C)NC(=O)CCc2nnc(CCCCc3ccccc3)o2)n1 (centres undefined)
-17% | O=C(O)C1C2C=CC3(O2)C1C(=O)N1c2ccccc2COC13 (centres undefined)
2% | Cc1ccc(C(=O)Nc2cccnc2)cc1NC(=O)c1ccco1
1% | O=C(NCCNC(=O)c1ccc(Cl)cc1Cl)c1ccco1
-4% | O=C(NCc1ccccn1)Nc1ccc(Cl)cc1Cl

The results go on.
KAT2A inh | compound
-7% | COc1cc(NS(=O)(=O)c2c(C(=O)N3CCCCC3)c(C)n(C)c2C)cc(OC)c1OC
-16%&-4% | Cc1ccc(NC(=O)Cn2cc(C(=O)C3CC3)c3ccccc32)c(C)c1
-1% | O=C(CSc1nnc2ccccn12)Nc1ccccc1Cl
-1% | CCOc1ccc2c(c1)OC(c1ccccc1)(C(F)(F)F)NC2=O (centres undefined)
-22% | CCOC(=O)c1ccc(Oc2nc(SC)nc(N(C)C)n2)cc1
-16% | CCc1cccc(NC(=O)CN(c2ccc(C)cc2)S(=O)(=O)c2c(C)noc2C)c1
-3% | CC(=O)Nc1ccc(NC(=O)C(C)OC(=O)c2ccc(N(C)C)cc2)cc1 (centres undefined)
-19% | CCOC(=O)Cn1cc(/C=N/NC(=O)c2ccc(C#N)cc2F)c2ccccc21
-3% | CCCCCCc1nnc(NC(=O)OCC)s1
-1% | Fc1cccc(Cl)c1CSC1=NCCS1
-6% | Cc1sc2ncnc(NCc3cccs3)c2c1C
-8% | CC(=O)c1cccc(NC(=S)NNC(=O)c2ccco2)c1
-3% | O=C(CN1C(=O)CSc2ccc(S(=O)(=O)N3CCCCC3)cc21)NCc1ccccc1
-4% | Cc1ccc(CS(=O)(=O)CCC(=O)NCc2ccc(F)cc2)cc1
-7% | COc1cc(OC)cc(C(=O)Nc2c(C)nn(-c3ccccc3)c2C)c1
-6% | CCOC(=O)c1ccc(NC(=O)CCc2ccc(CC)o2)cc1
-3% | CC(C)n1nnnc1-c1ccc(Cl)cc1
? | COc1ccc(-n2c(=O)c3ccccc3n(CC(=O)NC3CCCC3)c2=O)c(OC)c1
2% | COC(=O)c1c(NC(=O)CC2SC(N)=NC2=O)sc2c1CCCC2 (centres undefined)
-7% | Cc1cccc(NC(=O)c2ccc(CN3CC(=O)N4CCCCC4C3=O)cc2)c1C (centres undefined)
0% | CCOC(=O)c1cnc(NCc2ccccc2)nc1C
-10% | COc1ccc2nc(SC(C)C(=O)NC3CCCCC3)[nH]c2c1 (centres undefined)
-10% | COc1cccc(-c2cc(=O)c3ccccc3o2)c1N
? | Cn1c(=O)[nH]c(=O)c2c1nc(Br)n2Cc1cccc(Br)c1
-8% | CCN(CC(O)CON=C1c2ccccc2-c2ccccc21)S(=O)(=O)c1ccc(C)cc1 (centres undefined)
-1% | CCCCc1nnc(NC(=O)c2ccc3c(=O)n4c(nc3c2)CCC4)s1
-4% | C=CC[C@]12CCc3sccc3C1N(c1ccc(C(=O)OCC)cc1)C2=O (some centres undefined)
-4% | O=C(NCc1ccco1)c1ccccc1SCC(=O)N1CCCC1
-1% | Cc1nnsc1C(=O)N/N=C/c1ccccc1
-10% | CCCCCNC(=O)Cc1cc(=O)[nH]c(=O)[nH]1
-8% | Cc1ccc(C2(C)NC(=O)N(CC(=O)Nc3ccc4c(c3)OCO4)C2=O)cc1 (centres undefined)
-7% | O=C(Nc1ccc(Cc2ccncc2)cc1)C1CC1
-5% | CC(=O)Nc1ccc(NS(=O)(=O)c2cn(C)c(=O)n(C)c2=O)cc1
0% | Cc1ccc(CCC(=O)Nc2ccc(C#N)cc2)o1
-1% | CCCCC(=O)N(CCOC)c1nnc(-c2ccccc2C)s1
-2% | COc1ccccc1CN1CC(C(=O)N(CCO)Cc2cccs2)CCC1=O (centres undefined)
3% | Cc1noc(C)c1C(=O)NC(C)c1ccc(Cl)cc1Cl (centres undefined)
-2% | O=C(CCCn1c(=S)[nH]c2cc3c(cc2c1=O)OCO3)N1CCN(c2ccc(F)cc2)CC1
1% | COc1ccccc1OCCNC(=O)c1cccc(S(=O)(=O)N2CCN(C)CC2)c1
-1% | O=S(=O)(Nc1nc2ccccc2nc1-[n+]1ccccc1)c1ccc(Cl)cc1

Taken from above.
`O=C(NCc1ccco1)c1ccccc1SCC(=O)N1CCCC1` – KAT2A inh: -4%
`CCCCc1nnc(NC(=O)c2ccc3c(=O)n4c(nc3c2)CCC4)s1` – KAT2A inh: -1%
`COc1ccccc1OCCNC(=O)c1cccc(S(=O)(=O)N2CCN(C)CC2)c1` – KAT2A inh: 1%
`Cc1noc(C)c1C(=O)NC(C)c1ccc(Cl)cc1Cl` (centres undefined) – KAT2A inh: 3%
`Cc1ccc(C2(C)NC(=O)N(CC(=O)Nc3ccc4c(c3)OCO4)C2=O)cc1` (centres undefined) – KAT2A inh: -8%

Remaining list, next part:
KAT2A inh | compound
-6% | O=c1oc2c3c(ccc2c2ccccc12)OCN(Cc1ccccc1Cl)C3
1% | CN(CC(=O)Nc1ccccc1Br)c1ncnc2sccc12
-11% | Cc1ccc(C(=O)C2=C(O)C(=O)N(c3ncccn3)C2c2ccccc2F)o1 (centres undefined)
1% | COc1ccc(-c2ccc(-c3nnn(CC(C)=O)n3)cc2)cc1
-14% | CCCCOC(=O)CNc1n[nH]c(=S)[nH]c1=O
1% | Cn1c(N)c(Sc2ccc(F)cc2)c(=O)n(C)c1=O
-2% | Cc1ccc(-n2c(SCC(N)=O)nc3c(oc4ccccc43)c2=O)cc1C
-2% | Cc1cccn2c(=O)c3cc(C(=O)NC(C)C)n(C)c3nc12
-1% | CC(C)N(Cc1cnn(C)c1)C(=O)c1ccc(OC2CCN(Cc3ccccn3)CC2)cc1
1% | Cc1ccc(NC(=O)CN(C)C(=O)C(C)N2CCN(Cc3ccccc3C)CC2)cc1 (centres undefined)
-1% | CCOc1ccc(NC(=O)CN(C)C(=O)c2nc3nc(C)cc(C)n3n2)cc1OCC
1% | Cc1nn(CC(=O)N2N=C(C(F)F)CC2(O)C(F)F)c(C)c1[N+](=O)[O-] (centres undefined)
-4% | CC(C)(C)C(=O)N1N=C(c2cccc(NS(C)(=O)=O)c2)CC1c1cccs1 (centres undefined)
-5% | COc1ccc(NC(=O)Nc2ccccc2OC)cc1
0% | Cc1ccccc1Cn1ccc(=NCc2ccccc2)cc1
-3% | CC(C)C(NC(=O)CSc1ccc(Cl)cc1)C(C)C
? | CCC(=O)Nc1ccc2c(c1)C(=O)c1ccccc1C2=O
-10% | Cc1ccc2nc(C)c3c(c2c1)OC(C(C)(Cl)Br)C3 (centres undefined)
15% | CCC(NC(=O)c1ccc(C#CC2(O)CCCCC2)cc1)C(=O)O (centres undefined)
2% | CC(C)CCNC(=O)C(=O)NCCC1=CCCCC1
-1% | CC(=O)Nc1ccc(NC(=O)C(C)OC(=O)CC2CCCCC2)cc1 (centres undefined)
-6% | CCCCOc1ccc(C(=O)Nc2ccc(N3CCN(C)CC3)cc2)cc1
-1% | CCn1c(=O)cc(OCC(=O)NCCCN2CCCC2=O)c2ccccc21
-3% | CCc1cc(C(=O)NNC(=S)NC(C)c2ccccc2)cs1 (centres undefined)
-1% | S=C(NC1CCCCC1)N1CCN(C2CCCCC2)CC1
-7% | CCN1CCN(C(=O)Cn2ncc3c2-c2ccccc2OC3)CC1
-4% | COC(=O)C(CC(C)C)NC(=O)CNC(=O)c1ccccc1C (centres undefined)
-3% | CC1=C(C(=O)Nc2ccccc2)C(c2ccc3c(c2)OCO3)C2=C(CCCC2=O)N1 (centres undefined)
-8% | FC(F)(F)Oc1ccc2c(c1)NC(c1ccncc1)=NC(c1cccs1)=N2
1% | COC(=O)c1ccccc1OCC(=O)N1CCN(c2ccc(F)cc2)CC1
-1% | COC(=O)c1cccnc1NC(=S)NC(C)C
1% | COc1ccc(Cn2c(SCC(=O)NCc3ccco3)nc3ccsc3c2=O)cc1
12% | CN(C)c1ccc(-c2cccc(C3CC=CC4C3C(=O)N(Cc3ccccc3)C4c3ccc4ccccc4c3)c2)cc1 (centres undefined)
-9% | COc1ccc(OCC(=O)N2CCN(S(=O)(=O)c3ccc(Cl)s3)CC2)cc1
-4% | Cc1ccc(SCC(=O)Nc2ccccc2C(=O)O)cc1
-6% | CN(C)CCCNc1oc(/C=C/c2ccc(F)cc2)nc1C#N
-8%&-11% | CCC(C)(C)N=C(NC#N)Nc1cccnc1
-9% | CCC(C)[C@H](Nc1nc(-c2ccccc2)nc2c1oc1ccccc12)C(=O)O (some centres undefined)
-19% | NC(=O)NC(=O)CSc1nc(-c2ccccc2)c(-c2ccccc2)n1CC1CCCO1 (centres undefined)
-14%&-10% | COc1ccc(N2CC(C(=O)NCc3nnnn3-c3ccc(C)c(C)c3)CC2=O)cc1 (centres undefined)

Shown in CSV form: five of the compounds above.
smiles,KAT2A inh
CCCc1cc(=O)n2nc(N3CCC(C(=O)NCc4ccc(C)o4)CC3)sc2n1,-23%
c1ccc2c(c1)CCc1c(-c3ccncc3)n[nH]c1-2,-3%
COc1cccc(CC(=O)OC(C)C(=O)Nc2ccc(Cl)cn2)c1 (centres undefined),0%
COc1ccccc1N1CCN(C2CCCN(C(=O)CCn3cncn3)C2)CC1 (centres undefined),2%
c1n[nH]c(SCCCCSc2ncn[nH]2)n1,-4%[0.501 µM]

2 compounds drawn at random from the list so far, as already listed:
KAT2A inh | compound
-1% | COC(=O)c1cccnc1NC(=S)NC(C)C
-1% | CCn1c(=O)cc(OCC(=O)NCCCN2CCCC2=O)c2ccccc21
